Compound activity (PubChem)
NS1 inh = influenza NS1 inhibition; S. cerevisiae slowed by influenza A NS1, growth recovery by OD600; Potency, µM (series often up to 46.1 µM), without a hit: top-dose activity, positive = more growth; actives 0.4% (n = 270,000); active means well fitted rising curve with a large enough effect; inconclusive means small, poorly fitted or top-dose-only effect; inactive means no such curve, though single readings can be large or run the other way; further: nearly all actives have a fitted effect of over 50% in size
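OD600 was taken as the measure of yeast growth restored by compound in an NS1-expressing S. cerevisiae strain. Cells had been washed out of glucose medium and diluted 1:100 into galactose -URA medium, pH 6.0.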
Cruzain inh noDet = inhibitors of Trypanosoma cruzi cruzain without detergent | P25779 | purified cruzain, Z-FR-AMC fluorescence, no detergent | Potency, µM, inactives show max response, negative = inhibition, hits mostly inhibitors | actives 2.3% (n = 200,000) | AID 1476;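 further: plate controls were enzyme without inhibitor for no effect and buffer without enzyme for full effect; nearly all actives have a fitted effect of over 40% in size; top concentration of the series not given in the record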
Target sequence (P25779 123-467 limits assumed): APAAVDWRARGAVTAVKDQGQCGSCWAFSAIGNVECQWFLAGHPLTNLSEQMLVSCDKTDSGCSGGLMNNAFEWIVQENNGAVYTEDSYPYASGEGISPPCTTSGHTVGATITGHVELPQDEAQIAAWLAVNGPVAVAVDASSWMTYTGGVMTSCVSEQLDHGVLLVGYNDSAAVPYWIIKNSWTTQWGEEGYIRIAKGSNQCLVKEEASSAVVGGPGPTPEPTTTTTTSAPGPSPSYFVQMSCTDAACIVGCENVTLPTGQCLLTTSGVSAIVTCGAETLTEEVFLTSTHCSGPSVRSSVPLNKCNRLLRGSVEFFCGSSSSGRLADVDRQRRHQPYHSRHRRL
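Purified cruzain at 1.5 nM, pre-incubated 15 min with compound at room temperature in 100 mM sodium acetate pH 5.5, 5 mM DTT, 0.00005% Triton X-100. Reaction started with 2 uM Z-FR-AMC; AMC fluorescence increase over 60 s gives rate.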
StopGo reporter = lowers the luciferase signal of an FMDV 2A StopGo reporter; human cells with a luciferase reporter of 2A StopGo recoding; control for the full effect not named in the record; actives 1.2% (n = 410,000); Potency, µM (doses to about 57.9 µM), for the others: at the highest dose signal change, negative = less light; active = well fitted falling curve with a large enough effect; inconclusive = small, poorly fitted or top-dose-only effect; inactive = no such curve, though single readings can be large or run the other way; tested in HEK293T cells; further: on the % scale 0 is the no-effect control and ±100 the full control effect; nearly all actives have a fitted effect of over 45% in size; luciferase light after 4 h
SARS PLpro yeast = blocks SARS-CoV papain-like protease in a yeast assay | S. cerevisiae expressing SARS-CoV PLpro, growth rescue; control for the full effect not named in the record | Potency, µM (series often up to 32.9 µM), without a hit: at the highest dose activity, positive = growth rescue | actives 0.19% (n = 330,000); active means well fitted rising curve with a large enough effect; inconclusive means small, poorly fitted or top-dose-only effect; inactive means no such curve, though single readings can be large or run the other way; further: 0% is about no effect; nearly all actives have a fitted effect of over 55% in size; growth read by luminescence after 48 h
Cruzain inh Det = blocks cruzain activity in presence of Triton detergent. P25779. purified cruzain, Z-FR-AMC fluorescence, 0.01% Triton. Potency, µM, without a hit: max response, negative = inhibition, usual class: inhibitors. actives 0.43% (n = 200,000). AID 1478;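 further: plate controls were neutral wells for no effect and buffer without enzyme for full effect; nearly all actives have a fitted effect of over 40% in size; top concentration of the series not given in the record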
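Detergent-containing arm of a paired screen for aggregation-based inhibition: 0.01% Triton X-100 present. Cruzain at 1.5 nM cleaved 2 uM Z-FR-AMC at pH 5.5 with 5 mM DTT; AMC fluorescence gain over 60 s measured activity.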
RE007 growth inh = less growth of the S. pombe RE007 Vpr strain. S. pombe RE007 Vpr strain, BacTiter-Glo ATP luminescence, 24 h; control for the full effect not named in the record. Potency, µM (doses to about 92.2 µM), inactives show at the top dose activity change, negative = less growth. actives 0.21% (n = 360,000); active = well fitted falling curve with a large enough effect; inconclusive = small, poorly fitted or top-dose-only effect; inactive = no such curve, though single readings can be large or run the other way;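 further: on the % scale 0 is the no-effect control and ±100 the full control effect; nearly all actives have a fitted effect of over 50% in size; the assay follows cell death caused by Vpr and the record does not say whether a fall means rescue or toxicity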
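Fission yeast RE007 carrying one integrated HIV-1 vpr copy, seeded at OD 0.01 in PMG+AL medium with 23 nL pinned compound. Grown 24 h at 30 degrees; viability read by BacTiter-Glo luminescence after 5 min.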
Lassa entry inh = Lassa virus entry inhibition. Lassa virus pseudotype entry inhibition, cell reporter; control for the full effect not named in the record. Potency, µM (titrated, usually from 37.9 µM), for inactives: at the highest dose activity change, negative = inhibition, hits mostly inhibitors. actives 1.2% (n = 300,000). AID 540256; active means well fitted inhibition curve with a large enough effect; inconclusive means small, poorly fitted or top-dose-only effect, or effect the other way; inactive means flat fitted curve, though single readings scatter; tested in HEK293 cells; further: on the % scale 0 is the no-effect control and ±100 the full control effect; nearly all actives have a fitted effect of over 50% in size; luciferase read-out
MARV entry inh = inhibitors of Marburg virus binding or cell entry | Potency, µM (titrated, usually from 37.8 µM), for the others: at the top dose activity change, negative = inhibition, usual class: inhibitors | actives 1.8% (n = 300,000) | Marburg virus pseudotyped entry inhibition, cell reporter; control for the full effect not named in the record; about a third of the inactives were read at about 46 µM; active = well fitted inhibition curve with a large enough effect; inconclusive = small, poorly fitted or top-dose-only effect, or effect the other way; inactive = flat fitted curve, though single readings scatter; tested in HEK293 cells; about a fifth of its hits are not listed in these tables; further: on the % scale 0 is the no-effect control and ±100 the full control effect; luciferase read-out
Active calls of the source: *; ? = inconclusive; · = not tested or not shown; & = joins results of further samples; [ ] = another dose, or the depositor's remark. Unless noted, the call rests on the fitted dose curve; in most records, active means well fitted curve in the direction sought with a large enough effect; inconclusive means small, poorly fitted or top-dose-only effect, or another doubt; inactive means no such curve, though single readings can be large; an effect the other way counts as inactive or inconclusive. Potency means the concentration at half of the fitted maximal effect.

Under each structure – NS1 inh	Cruzain inh noDet	StopGo reporter	SARS PLpro yeast	Cruzain inh Det	RE007 growth inh	Lassa entry inh	MARV entry inh
[1] Cc1ccccc1C(=O)Nc1ccc(Br)c(C)n1
 : -34%	-2%	12%	-3%	1.2%	?	21%	?
[2] COc1ccc(OC)c(NC(=O)c2ccc3c(c2)OCO3)c1
 : -16%	·	26%	-5%	·	-30%	·	·
[3] CCN(CC(=O)Nc1ccc(OC)c(OC)c1)CC(=O)Nc1ccccc1C(F)(F)F
 : -2%	·	-17%	1%	·	-19%	-27%[46.1 µM]	-2%[46.1 µM]
[4] Cn1nc(C(=O)NNC(=O)c2ccc(Cl)cc2)ccc1=O
 : ·	·	1%	13%	·	-6%	-3%[46.1 µM]	-8%
[5] CC(C)N(CCc1ccncc1)C(=O)Nc1ccc(Cl)c(Cl)c1
 : -193%	-11%	-13%	-26%	2.7%	-12%	·	·
[6] Cc1ccc(C(C(=O)NC2CCCCC2)N(Cc2ccccc2)C(=O)Cc2c[nH]c3ccccc23)o1 (stereo not given)
 : 7%	18%	3%	-17%	-5.9%	5%	?	?
[7] Cc1cccc(C(=O)NC2CCN(S(=O)(=O)c3ccccc3F)CC2)c1
 : ?	·	-24%	6%	·	-2%	·	·
[8] Cc1nc(N2CCN(Cc3ccc(Cl)cc3)CC2)c2oc3ccccc3c2n1
 : -40%	·	?	-3%	·	-21%	8%[46.1 µM]	?
[9] COc1ccc2c(c1)NP(=S)(c1ccccc1)N2C (stereo not given)
 : ·	·	-4%	·	·	-23%	-8%[46.1 µM]	2%[46.1 µM]
[10] COc1ccccc1NC(=O)c1cccnc1
 : 1%	-10%	4%	·	3.5%	12%	4%	20%
[11] CN(C)S(=O)(=O)Oc1ccsc1C(=O)Nc1ccc(C(F)(F)F)cc1
 : -2%	·	-29%	-2%	·	13%	?	-18%[46.1 µM]
[12] Cc1nn(C(C)C(=O)N2CCc3ccccc3C2)c(=O)c2cc3occc3n12 (stereo not given)
 : 6%	3%	-22%	8%	0.8%	-4%	-15%	1%
[13] NC(=O)c1cccc(S(=O)(=O)N2CCCCC2)c1
 : 10%	-3%	-22%	2%	3.4%	-5%	12%	0%
[14] COC(=O)COc1cccc2c(=O)n(CC(=O)NCc3ccc(F)cc3)ccc12
 : -1%	·	-17%	1%	·	-1%	·	·
[15] Cc1ccc(S(=O)(=O)N2CCN(Cc3ccccc3)CC2)cc1
 : -7%	·	-27%	0%	·	-8%	·	2%
[16] Cc1ccccc1-c1noc(CSc2nnc(Cc3ccccc3)n2-c2ccc(F)cc2)n1
 : ·	-6%	0%	·	-9.7%	·	?	?
[17] CCN1CC(CN(C)Cc2nc(COc3ccccc3)no2)CC1=O (stereo not given)
 : 1%	·	17%	0%	·	-8%	1%	6%[46.1 µM]
[18] COc1cc(-c2nnc(SCCOc3ccc(C)c(Cl)c3)o2)cc(OC)c1OC
 : ·	?	-6%	·	7.3%	·	5%[46.1 µM]	?
[19] Cc1ccc(CNC(=O)c2cn(C)c3ccc(S(=O)(=O)N(C)C4CCCCC4)cc3c2=O)cc1
 : ·	-15%	15%	·	-1.5%	·	?	10%[46.1 µM]
[20] Cc1ccc(SCC(=O)Nc2ccc(S(=O)(=O)Nc3nccs3)cc2)cc1
 : -15%	-4%	53%[activator]	4%	-11%	17%	?	17%
[21] COc1cc(C(=O)O)cc(Br)c1OC1CCCC1
 : -100%	3%	·	-10%	2.3%	2%	4%	8%
[22] CCOP(=O)(OCC)c1nc(-c2ccc(Cl)cc2Cl)oc1N1CCOCC1
 : 1%	·	0%	0%	·	4%	·	·
[23] CCCCn1c(N)c(N(CCOC)C(=O)c2ccc(S(=O)(=O)N(CC)c3ccccc3)cc2)c(=O)[nH]c1=O
 : ·	·	-3%	5%	·	3%	-23%	-1%
[24] COc1ccc(Cc2nc(-c3ccc(Cl)cc3)no2)cc1
 : -12%	-9%	21%	-6%	4.3%	?	?	-17%[46.1 µM]
[25] COc1ccccc1CN1C[C@@H]2C[C@@H](c3ccc(C)c(C)c3)N3CCC[C@@]23C1=O
 : 4%	·	34%[activator]	-1%	·	-16%	1%	?
[26] CCOC(=O)CCNC(=O)Nc1ccc2nc(C)n(Cc3ccc(Cl)cc3)c(=O)c2c1
 : -26%	?	·	0%	-7.8%	-5%	-7%	0%
[27] COc1ccc(/C=N/N=C2/NC(=O)CC(C(=O)O)S2)cc1 (stereo not given)
 : 21%	-9%	-4%	-2%	-6.1%	-7%	3%	?
[28] CC1(C)C(=O)OC(c2c3ccccc3cc3ccccc23)C(C)(C)C1=O (stereo not given)
 : -13%	·	-19%	-1%	·	24%	-15%	?
[29] Cc1cccc(CN2C[C@]34C=C[C@@H](C[C@@H]3S2(=O)=O)O4)c1
 : 6%	·	-13%	1%	·	6%	·	·
[30] CCN1C(=O)CC(C(=O)NCCc2ccc(S(N)(=O)=O)cc2)SC1=Nc1ccc(OC)cc1 (stereo not given)
 : ·	·	-18%	2%	·	-1%	-6%	-8%[46.1 µM]
[31] OCCCc1cn(-c2ccccc2)c2ccccc12
 : -4%	·	34%[activator]	0%	·	-10%	-3%	12%[46.1 µM]
[32] O=S(=O)(NCc1cccc(Br)c1)c1ccc(-c2cc(C(F)(F)F)on2)s1
 : ·	?	-19%	·	1.0%	·	17%[46.1 µM]	·
[33] CC(=O)Nc1ccc(OCC(O)CN2CCN(c3ccccc3Cl)CC2)cc1 (stereo not given)
 : -7%	-1%	0%	21%	-10%	3%	?	?
[34] CC(C)c1ccc(NC(=O)COC(=O)/C=C/c2cccc([N+](=O)[O-])c2)cc1
 : 18%	5%	3%	21%	-5.5%	-1%	5%	2%
[35] CN(C(=O)c1ccc2c(c1)OCO2)C1(C(=O)NC2CCCCC2)CCCCC1
 : -54%	14%	4%	-15%	1.0%	-4%	-8%	·
[36] O=C(Nc1ccnn1C1CCN(Cc2ccccc2)CC1)C1CCCC1
 : -3%	·	-4%	5%	·	8%	8%	?
[37] COc1cc(C(=O)N2CCN(c3cccc(C)c3C)CC2)cc(OC)c1OC
 : -83%	?	0%	4%	-7.2%	19%	·	·
[38] CCCNC(=O)CCC(=O)N1Cc2cccc(OC)c2Oc2ncccc21
 : ·	0%	-19%	·	-1.8%	·	?	·
[39] COc1cc2c(c(OC)c1OC)C(=O)CO2
 : ·	·	-12%	·	·	-14%	16%	-10%
[40] Cn1cccc1/C=C1\SC(=S)N(Nc2ccccc2)C1=O
 : 0%	·	57%[activator]	-1%	·	42%	·	·
[41] O=C(CCCN1C(=O)/C(=C/c2ccccc2)SC1=S)N1CCOCC1
 : 3%	·	-10%	-5%	·	-21%	·	-2%[46.1 µM]
[42] Cc1ccccc1S(=O)(=O)NCc1ccc(N2CCN(C)CC2)cc1
 : 3%	·	18%	1%	·	3%	·	·
[43] O=C(NCc1ccc2c(c1)OCO2)c1cccc(S(=O)(=O)N2CCCCC2)c1
 : -20%	6%	26%	13%	-3.6%	0%	-16%	4%
[44] Cc1cccc(NC(=O)c2ccc(Cn3nc(N4CCN(c5ccccc5)CC4)ccc3=O)o2)c1C
 : ·	?	-24%	·	-5.3%	·	-15%[46.1 µM]	·
[45] O=C(NCCNC(=O)c1ccccn1)c1ccc(Cl)cc1
 : 4%	·	-3%	-3%	·	-3%	17%	-14%[46.1 µM]

Whole records from above. Values in the order: NS1 inh | Cruzain inh noDet | StopGo reporter | SARS PLpro yeast | Cruzain inh Det | RE007 growth inh | Lassa entry inh | MARV entry inh
Entry for CCCNC(=O)CCC(=O)N1Cc2cccc(OC)c2Oc2ncccc21 : · | 0% | -19% | · | -1.8% | · | ? | ·
Entry for O=C(NCCNC(=O)c1ccccn1)c1ccc(Cl)cc1 : 4% | · | -3% | -3% | · | -3% | 17% | -14%[46.1 µM]

Further records follow:
Under each structure – NS1 inh	Cruzain inh noDet	StopGo reporter	SARS PLpro yeast	Cruzain inh Det	RE007 growth inh	Lassa entry inh	MARV entry inh
[46] Cc1ccc(N=C(NO)c2nonc2N)cc1
 : 3%	1%	42%[activator]	3%	0.0%	9%	-1%	15%
[47] CC(=O)Nc1ccc(NC(=O)C(C)OC(=O)C2CCC2)cc1 (stereo not given)
 : ·	·	-23%	-1%	·	3%	11%[46.1 µM]	?
[48] COC(=O)c1ccc(C(C(=O)NC2CCCCC2)N(CCN2CCOCC2)C(=O)Cc2cccs2)cc1 (stereo not given)
 : ·	·	11%	-5%	·	16%	15%	?
[49] Cc1noc(/C=C/c2ccccc2F)c1S(=O)(=O)N1CCC(C(=O)NCC(C)c2ccccc2)CC1 (stereo not given)
 : ·	-5%	-14%	·	-1.4%	·	1%[46.1 µM]	·
[50] CCCCCC(=O)NNC(=O)c1c(O)c2ccccc2n(CC)c1=O
 : 0%	·	-26%	-6%	·	-14%	?	4%[46.1 µM]
[51] O=C(NCCc1ccccc1)c1ccco1
 : -3%	-9%	76%[activator]	-25%	-5.2%	13%	1%	?
[52] Cc1cccc(NC(=O)c2ccc([N+](=O)[O-])o2)c1
 : -129%	·	9%	-6%	·	?	?	?
[53] COc1ccc(C)cc1NC(=O)CCS(=O)(=O)c1cccc2nonc12
 : -7%	-8%	0%	-5%	-3.8%	-7%	-10%	0%
[54] Cc1cc(C)c2sc(N(CCCN(C)C)C(=O)c3ccc(S(=O)(=O)N(C)C4CCCCC4)cc3)nc2c1
 : ·	·	?	8%	·	23%	?	?
[55] Cc1csc2nc(-c3cccc(NC(=O)c4ccccc4Cl)c3)cn12
 : ·	?	-4%	·	-3.7%	·	·	·
[56] Fc1ccc(CSc2ncnc3c2oc2ccccc23)cc1
 : -3%	0%	-14%	2%	-3.1%	10%	-1%	?
[57] CCCCNC(=O)N(C)c1nncnc1C(=O)NC
 : 3%	-2%	19%	11%	1.3%	10%	27%	10%&10%[46.1 µM]

Looked up above:
For NS1 inh, #14 has the entry -1%
For NS1 inh, #13 has the entry 10%
